Vif A3G = inhibitors of Vif binding to APOBEC3G peptide, primary screen, biochemical, TR-FRET, GST-Vif 1-94, biotin-A3G peptide, dose response retest (AID 1117319); Virion infectivity factor (Human immunodeficiency virus type 1 group M subtype B (isolate …; inhibition, %, or IC50 in µM where a hit was titrated; actives 0.57% (n = 260,000); TR-FRET GST-Vif / biotin-A3G peptide binding; higher % means a stronger effect; test concentration not given here; strong numbers were not always called active;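 active = above the screen mean plus three standard deviations and confirmed in dose response; inconclusive = results disagree or hit not tested in dose response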;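 also: Vif residues 1-94 fused to GST binding biotinylated APOBEC3G peptide 110-148; 0% = full assay without inhibitor and 100% = GST in place of GST-Vif; retest series ran down from 100 µM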
FGF22 binding = binders of human FGF22 protein, primary screen, FGF22 synaptogenesis inhibitor project, biophysical, thermal shift, single point. AID 651658, 2012. recombinant FGF22 thermal shift, SYPRO orange fluorescence; percent of sucrose octasulfate shift, DMSO zero. actives 1.5% (n = 340,000). calls only at 9.99 µM;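 active = melting point raised past a set limit in the mean and every replicate; inconclusive = no clear call; three in four hits are not shown here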
Target sequence (Q9HCT0 whole entry, looked up): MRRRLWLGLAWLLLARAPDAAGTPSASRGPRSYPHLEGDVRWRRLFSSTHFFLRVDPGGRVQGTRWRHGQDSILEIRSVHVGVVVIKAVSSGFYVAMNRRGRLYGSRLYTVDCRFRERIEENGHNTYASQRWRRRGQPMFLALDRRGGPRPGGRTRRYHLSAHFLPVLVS
E coli growth = E. coli growth inhibition, primary screen, OD600; Escherichia coli growth, 23 h; stronger effect = lower value; OD600 absorbance (concentration not given with the values); actives 0.21% (n = 330,000); AID 1053175, 2014;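 active = OD600 absorbance below the run mean of sample wells minus 3.6 SD, in any replicate, cut at about 0.56 in these data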;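 also: stock transfer was 300 nL into about 60 µL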
RanGTP-Imp inh = inhibitors of RanGTP-importin-beta interaction, primary screen, biochemical, FRET, CFP-Ran, YFP-importin-beta, homogeneous; Ran GTPase (GTP-bound) - importin-beta complex; cell-free CFP-Ran/YFP-importin-beta FRET ratio; inhibition, % (concentration not given with the values); actives 1.1% (n = 300,000);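 active = most replicates above 15%; inconclusive = exactly half above 15%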;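 also: 0% = DMSO wells and 100% = Ran loaded with GDP instead of GTP; wells of about 40 µL received 100 nL stock; the first replicate is given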
UCH37 DUB inh = inhibitors of human UCH37 deubiquitinase, primary screen, biochemical, Ub-AMC cleavage, fluorescence; Ubiquitin carboxyl-terminal hydrolase isozyme L5 (Homo sapiens), Q9Y5K5; purified proteasome/UCH37; inhibition, % (test concentration not listed); actives 0.33% (n = 330,000); AID 588478, 2011;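 active = mean of two replicates above 20%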;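 also: 0% = compound-free wells with enzyme and 100% = wells lacking proteasome; stock transfer was 100 nL into about 20 µL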
Target sequence (Q9Y5K5 whole entry, looked up): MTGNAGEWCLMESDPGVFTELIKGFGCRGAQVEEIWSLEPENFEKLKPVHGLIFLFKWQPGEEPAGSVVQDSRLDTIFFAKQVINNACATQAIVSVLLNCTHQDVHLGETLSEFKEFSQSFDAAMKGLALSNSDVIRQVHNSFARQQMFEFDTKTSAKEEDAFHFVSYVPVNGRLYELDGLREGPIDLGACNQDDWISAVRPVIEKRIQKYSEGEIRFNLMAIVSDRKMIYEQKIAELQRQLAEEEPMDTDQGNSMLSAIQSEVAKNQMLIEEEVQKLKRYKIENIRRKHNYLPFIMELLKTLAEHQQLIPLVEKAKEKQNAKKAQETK
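Signal – fluorescence, ex 355 nm, em 460 nm · System – Proteasome-bound UCH37 · Input – 0.15 nM proteasome as dispensed · Timing – 30 min preincubation with enzyme, 25 min cleavage at room temperature · Read-out basis – percent inhibition of cleavage signal versus uninhibited and no-proteasome wells · Medium – Tris-HCl pH 7.4 with ATP-MgCl2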
AF4-AF9 inh = inhibitors of AF4 peptide binding to AF9, primary screen, biochemical, AlphaScreen, biotin-AF4 peptide, FLAG-AF9, single point; inhibition, % at 10 µM; actives 0.47% (n = 350,000); Protein AF-9 (Homo sapiens), P42568;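 active = every replicate reaching a set inhibition limit, whatever the replicate mean, cut at about 25% in these data; inconclusive = mean inhibition reaches that limit but some replicates miss it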;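 also: 0% = plate neutral control median and 100% = total signal loss; the record names both 10 and 1 µM as test concentration; the first replicate is given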
Target sequence (P42568 whole entry, looked up): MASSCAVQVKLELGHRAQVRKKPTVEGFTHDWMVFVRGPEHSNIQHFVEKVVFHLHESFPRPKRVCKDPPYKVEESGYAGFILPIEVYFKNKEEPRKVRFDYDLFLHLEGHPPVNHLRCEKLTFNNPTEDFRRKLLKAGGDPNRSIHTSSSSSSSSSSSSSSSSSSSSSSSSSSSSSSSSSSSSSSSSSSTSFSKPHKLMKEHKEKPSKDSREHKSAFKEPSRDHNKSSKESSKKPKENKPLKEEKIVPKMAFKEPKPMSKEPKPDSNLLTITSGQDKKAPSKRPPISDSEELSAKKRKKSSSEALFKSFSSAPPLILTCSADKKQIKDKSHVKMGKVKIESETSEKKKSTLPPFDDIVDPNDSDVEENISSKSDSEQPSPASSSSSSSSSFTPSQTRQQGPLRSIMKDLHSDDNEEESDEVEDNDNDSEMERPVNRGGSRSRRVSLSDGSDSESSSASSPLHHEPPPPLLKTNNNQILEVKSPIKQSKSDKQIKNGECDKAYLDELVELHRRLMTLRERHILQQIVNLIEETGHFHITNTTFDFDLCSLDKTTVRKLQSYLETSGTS
HNF4A DNA FP = change in binding of human HNF4A to DNA, primary screen, biochemical, fluorescence polarization, FITC-DNA. 1 h. activity change, % at 10 µM. actives 0.3% (n = 360,000). AID 1224865, 2016; in the data active = activity change above about 30%, passing the limit was not always enough;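 also: controls were the assay level and a saturating level of protein; the project sought stronger binding though the title names inhibitors; some compounds called inactive have numbers as strong as hits; positive values seem to mean higher polarization but the record does not say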
The depositor's hits bear a star; i = inactive; u = inconclusive; x = not tested or not shown. An excerpt. The share of hits here may be higher or lower than overall.

no.	Structure	Vif A3G	FGF22 binding	E coli growth	RanGTP-Imp inh	UCH37 DUB inh	AF4-AF9 inh	HNF4A DNA FP
1	O=C(CNC(=O)c1ccc(Br)o1)NCC1CCCCC1	7%	i	0.63	x	0.6	-0.6	-3.4
2	Cc1noc(C)c1COC(=O)c1cccc(N(C)C)c1	3%	i	0.68	-4.1	-16	1.2	3.7
3	C[C@@H]1COC(=O)[C@@H](Cc2ccc(F)cc2)C/C=C\C[C@@H](CC(=O)N(CCO)Cc2ccccc2)C(=O)N1	x	i	x	x	-3.4	4.5	1.2
4	COc1ccccc1N1CCN(c2ccc3ccccc3n2)CC1	x	i	0.64	u	-30	-0.1	-1.6
5	O=C(CSCc1ccc(Br)cc1)NC1CC1	76%	i	0.71	-0.7	0.2	-0.8	0.1
6	Nc1cc(-c2ccc(OC(F)(F)F)cc2)nn1-c1ccc(Cl)c(Cl)c1	-1%	i	0.66	-0.1	4.0	-4.1	6.9
7	COc1cccc(CCNC(=O)CCc2nnc(-c3cc(C)oc3C)o2)c1	-4%	i	0.61	3.1	-0.1	-0.1	-0.9
8	Cc1ccccc1S(=O)(=O)N1C[C@H]2CON(C)[C@H]2C[C@H]1c1cccc(-c2ccccc2)c1	-1%	i	x	x	x	3.0	-2.8
9	COc1cccc(C(=O)NCCS(=O)(=O)N2CCC(C)CC2)c1	x	x	x	1.6	x	-0.9	-14
10	CC(=O)NCc1ccc(C(=O)CN2C(=O)NC3(CCCCC3C)C2=O)s1 (stereo not given)	4%	i	0.67	x	1.3	-1.1	-1.9
11	COc1ccc(S(=O)(=O)n2nc(OC(C)=O)cc2N(C(C)=O)C(C)=O)cc1	0%	i	0.8	-2.6	-4.5	1.3	-1.2
12	NS(=O)(=O)c1ccc(Sc2ccccn2)c([N+](=O)[O-])c1	8%	i	x	-5.4	x	0.8	5.2
13	Cc1ccc(NC(=O)NCCCN2CCCC2=O)cc1C	x	i	0.7	3.3	1.6	1.6	-0.6
14	Cc1ccc(N2C(=O)C(Cl)=C(N3CCOCC3)C2=O)c(C)c1	12%	i	0.66	-0.4	2.4	0.5	-1.0
15	COc1ccc(N2CCN(S(=O)(=O)CCNC(=O)COc3ccccc3)CC2)cc1	-8%	x	0.64	-0.6	1.0	-0.8	-2.2
16	CCCC(=O)OC/C(O)=C(\C#N)c1nc2ccccc2[nH]1	7%	i	0.69	3.9	1.5	3.1	0.1
17	CN(CC(=O)NC(=O)NCc1ccccc1)CC(=O)Nc1ccc(Cl)c(C(F)(F)F)c1	5%	i	0.67	6.7	1.2	-4.3	2.7
18	O=C(NCc1ccc(F)cc1)c1cccc2c1C(=O)c1ccc(N3CCOCC3)cc1S2(=O)=O	x	i	0.71	x	1.5	-7.4	23
19	CC1(c2ccc(Cl)cc2)NC(=O)N(CC(=O)N2CCCC2)C1=O (stereo not given)	-2%	x	0.66	-2.7	3.3	x	4.8
20	CCOc1ccc(-c2c[n+]3c(n2-c2ccccc2)CCCCC3)cc1	6%	i	0.67	-0.4	2.5	-2.9	-6.3
21	COC(=O)c1nc2nc(C)cc(=O)n2[nH]1	-6%	x	0.65	2.0	4.3	x	1.2
22	COc1ccc(NC(=S)Nc2cc(C)cc(C)n2)cc1OC	13%	i	0.7	-2.8	1.2	0.0	3.2
23	O=C(NC(c1ccc(-c2ccccc2)cc1)c1cnccn1)C1CCN(Cc2ccc(Oc3ccccc3)cc2)CC1 (stereo not given)	x	i	x	x	x	4.5	-0.8
24	CCOC(=O)N1CCC(Nc2ncnc3c2cnn3-c2ccc(Cl)cc2)CC1	0%	i	0.68	1.0	-2.2	-17	-1.1
25	CCc1nc2ccc(C(=O)N3CCN(c4cccc(C(F)(F)F)c4)CC3)cc2nc1CC	-1%	i	0.68	1.1	2.3	1.4	-2.8
26	CCOC(=O)N1CCN(C(=O)c2cc3c(s2)-c2ccc(Cl)cc2S(=O)(=O)C3)CC1	-7%	i	0.68	-5.0	3.4	-0.3	2.4
27	CN(C)c1ncnc2sc(-c3ccccc3)cc12	x	i	0.66	2.0	-15	1.2	-0.7
28	CC1(C)CN2C(=S)N(c3ccccc3)C(c3ccccc3)N2C1 (stereo not given)	0%	x	0.69	-4.0	0.1	x	-0.8
29	COc1ccc(Br)cc1C(=O)CCC(=O)OCC(=O)Nc1cc(C(N)=O)cc(C(N)=O)c1	0%	i	0.68	x	2.5	-2.9	-0.3
30	CC1(C)CNc2cc([N+](=O)[O-])ccc2S1	2%	x	0.67	-2.1	26*	2.0	0.2
31	O=C(NCCc1ccccc1)c1ccc2c(c1)N(Cc1ccccc1)C(=O)CS2=O (stereo not given)	66%	i	0.73	0.1	4.1	2.3	3.6
32	CC1(C)C2CCC1(CS(=O)(=O)NCc1ccc(C(F)(F)F)cc1)C(=O)C2 (stereo not given)	-4%	i	0.7	8.9	3.6	3.3	-0.8
33	Cc1cc(/C=N\NC(=O)CC(=O)NC2CCCCC2)c(C)n1-c1ccc(Cl)cc1	-3%	i	x	-2.7	x	-3.0	-2.7
34	O=C(Nc1ccc(C(=O)N2CCOCC2)cc1)C1CCC1	x	i	x	x	x	-9.0	5.8
35	COc1cc(CNCc2ccccc2)ccc1OCC(O)c1ccccc1 (stereo not given)	2%	i	0.65	-1.7	-0.6	1.4	-0.6
36	COc1ccc(OC)c(S(=O)(=O)Nc2c(C)n(C)n(-c3ccccc3)c2=O)c1	-1%	i	x	2.8	x	0.4	1.3
37	Cc1onc(-c2ccccc2Cl)c1C(=O)NC1CCS(=O)(=O)C1 (stereo not given)	2%	i	0.75	5.7	7.3	-3.4	2.4
38	CC(C)Oc1cccc(OCCN2C(=O)c3ccccc3C2=O)c1	-8%	i	0.72	0.0	4.1	-0.7	2.4
39	CC1(C(=O)Nc2ccc3ccccc3c2)CCC(=O)N1CCc1c[nH]c2ccccc12 (stereo not given)	x	i	x	x	x	3.8	3.1
40	C[C@H](CO)N1C[C@H](C)[C@@H](CN(C)Cc2ccc3c(c2)OCO3)Oc2c(NC(=O)C3CC3)cccc2C1=O	x	i	0.76	x	-36	-0.2	0.2
41	NC(=O)Cn1c(-c2nonc2N)nc2ccccc21	x	i	0.73	5.0	3.1	-6.5	3.1
42	Cn1c(Cn2c(=O)sc3ccccc32)nnc1SCC(=O)NCc1ccc(F)cc1	68%	i	0.73	x	-2.1	-4.3	3.7
43	COC(=O)c1sccc1NC(=O)c1cc(-c2ccc(C)cc2C)nc2ccccc12	70%	x	0.76	4.8	-2.4	x	2.6
44	CCN(CC)CCCNC(=O)C(C)Sc1nc(-c2ccccc2)cc(C(F)(F)F)n1 (stereo not given)	-6%	i	0.68	4.7	1.6	5.9	1.6
45	Cc1cc(C(=O)COC(=O)/C=C/c2ccco2)c(C)n1C	-2%	i	0.65	x	3.9	3.8	3.7
46	CCCN1C(=O)/C(=C/c2ccccc2OCc2ccc(C(=O)O)cc2)NC1=S	-5%	i	0.69	5.7	8.0	-11	-0.1
47	Cc1nn(-c2ccccc2)c(C)c1NC(=O)COC(=O)c1cc(Br)ccc1O	-34%	i	0.64	x	-8.1	-7.8	0.8
48	Cc1ccc(Oc2ccc(Oc3ccc(C)cc3)nn2)cc1	-2%	x	0.73	-0.2	5.6	x	-0.5
49	O=C(CN(C(=O)c1csnn1)c1ccc(F)c(Cl)c1)NC1CCCC1	x	i	0.67	1.9	5.4	-10	2.1
50	Cc1ccc(C(=O)Nc2ccc(N3CCOCC3)cc2N2CCOCC2)cc1	x	i	0.72	0.7	0.7	-3.3	-4.4
51	CC(C)OCCCNC(=S)Nc1ccc(S(N)(=O)=O)cc1	-3%	i	0.7	2.3	1.7	-1.8	-6.4
52	Cc1ccccc1CN1CCN(C(=O)c2ccc(S(=O)(=O)NCc3ccco3)cc2)CC1	1%	i	x	x	x	3.1	-0.5
53	S=C1NNC2(NN1)C1CC3CC(C1)CC2C3	4%	x	0.71	3.0	1.0	x	0.5
54	COC(=O)c1cc(C(=O)Cc2ccccc2)c[nH]1	5%	x	0.65	-2.7	0.9	-0.8	x
55	CN(CC(=O)Nc1ccc(Cl)c(C(F)(F)F)c1)C(=O)C1CC(=O)N(c2ccc3c(c2)OCCO3)C1 (stereo not given)	x	i	x	x	x	0.6	-3.7
56	O=C(c1ccco1)N1CCN(C(=O)c2cc3cc([N+](=O)[O-])ccc3oc2=O)CC1	-10%	i	0.69	5.4	3.3	1.6	-2.6
57	CCOc1ccccc1NC(=O)C1=C(C)NC(=S)NC1c1cccs1 (stereo not given)	-8%	x	0.67	-1.7	1.5	x	0.9
58	O=S(=O)(Nc1cccc2c1CCCC2)c1cccc(C(F)(F)F)c1	0%	i	0.72	-3.0	3.2	-1.4	0.8
59	O=C(CCS(=O)(=O)c1cccc2nsnc12)NCc1ccccc1	29%	x	0.72	3.1	2.1	x	-1.2
60	Cc1ccc(-n2c(=O)[nH]c3c(C(N)=O)nc(CC(C)C)nc32)cc1	-4%	x	0.7	4.2	0.4	x	-0.3

Random excerpt: 2 compounds from above, in no set order.
no.	Structure	Vif A3G	FGF22 binding	E coli growth	RanGTP-Imp inh	UCH37 DUB inh	AF4-AF9 inh	HNF4A DNA FP
59	O=C(CCS(=O)(=O)c1cccc2nsnc12)NCc1ccccc1	29%	x	0.72	3.1	2.1	x	-1.2
56	O=C(c1ccco1)N1CCN(C(=O)c2cc3cc([N+](=O)[O-])ccc3oc2=O)CC1	-10%	i	0.69	5.4	3.3	1.6	-2.6

Continuation:
no.	Structure	Vif A3G	FGF22 binding	E coli growth	RanGTP-Imp inh	UCH37 DUB inh	AF4-AF9 inh	HNF4A DNA FP
61	Nc1cc(-c2ccccc2)nn1S(=O)(=O)c1ccc(Br)cc1	3%	i	0.7	4.2	8.9	-0.5	2.1
62	O=C(NCC1CCN(Cc2cccc(Cl)c2)CC1)Nc1ccccc1Cl	-5%	i	0.64	-3.0	5.7	-1.7	1.7
63	CCc1ccc(C(=O)NNC(=O)C2CC(=O)N(c3ccc4c(c3)OCCO4)C2)cc1 (stereo not given)	-12%	i	0.67	x	4.0	1.4	-3.2
64	O=C(c1ccc(-n2cncn2)c([N+](=O)[O-])c1)N1CCN(S(=O)(=O)c2c(F)cccc2F)CC1	8%	i	0.68	0.5	2.4	-5.4	5.3
65	CSC1=N/C(=C\c2ccccc2)C(=O)N1C	5%	i	0.7	-1.3	4.6	-6.3	-1.8
66	O=C(C1CCN(C2CCN(CC3CC=CCC3)CC2)CC1)N1CCOCC1 (stereo not given)	-3%	i	0.69	-0.6	0.3	0.7	-0.8
67	COc1ccc(N2CCN(C(=S)Nc3cccc(OC)c3)CC2)cc1	x	i	0.71	-2.7	2.5	8.3	3.9
68	CCCCC(=O)Nc1nn(C)c2nc3c(C)cccc3cc12	-2%	x	0.7	8.0	-1.0	x	0.3
69	O=C1CSC(=Nc2cccc(Cl)c2Cl)N1Cc1cccnc1	-1%	i	0.7	3.3	3.3	1.1	2.5
70	Clc1ccc2nc(CSc3ncn[nH]3)cn2c1	1%	i	0.7	6.3	-0.1	-5.2	0.3
71	O=C(Nc1ccc(S(=O)(=O)Nc2cnc3ccccc3n2)cc1)c1ccc(Cl)cc1Cl	x	i	0.65	1.4	-13	-1.3	-3.7

From PubChem
